Six1-Eya2 inh: qHTS Assay for Inhibitors of the Six1/Eya2 Interaction; Homeobox protein SIX1 (Homo sapiens) + Protein phosphatase EYA2 (Homo sapiens), …; AlphaScreen GST-Six1/His-Eya2 binding, biochemical; active compounds read low; control for the full effect not named in the record; activity change, % (no concentration beside the values); 360,000 tested, 0.56% active; AID 651725, 2012; in the data active = activity change below about -65%; inconclusive = about -30% to -65%; inactive = above about -30%; further: on the % scale 0 is the no-effect control and ±100 the full control effect
Target sequence (O00167 whole entry, looked up): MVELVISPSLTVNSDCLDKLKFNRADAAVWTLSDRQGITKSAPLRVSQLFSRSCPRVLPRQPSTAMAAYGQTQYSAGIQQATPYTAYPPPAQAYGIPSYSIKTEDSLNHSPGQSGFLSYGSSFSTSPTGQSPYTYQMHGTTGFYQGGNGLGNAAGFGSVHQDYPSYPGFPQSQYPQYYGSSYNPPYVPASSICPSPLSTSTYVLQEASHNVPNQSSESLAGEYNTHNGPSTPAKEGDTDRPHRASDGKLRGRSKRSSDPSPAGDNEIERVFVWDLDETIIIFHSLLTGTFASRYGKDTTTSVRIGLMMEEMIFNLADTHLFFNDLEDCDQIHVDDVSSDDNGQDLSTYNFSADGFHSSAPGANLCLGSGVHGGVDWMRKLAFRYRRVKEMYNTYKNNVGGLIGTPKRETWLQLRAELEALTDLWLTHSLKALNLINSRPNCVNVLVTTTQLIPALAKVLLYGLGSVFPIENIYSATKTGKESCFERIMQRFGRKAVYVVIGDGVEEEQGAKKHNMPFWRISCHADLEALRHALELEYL
Target sequence (Q15475 whole entry, looked up): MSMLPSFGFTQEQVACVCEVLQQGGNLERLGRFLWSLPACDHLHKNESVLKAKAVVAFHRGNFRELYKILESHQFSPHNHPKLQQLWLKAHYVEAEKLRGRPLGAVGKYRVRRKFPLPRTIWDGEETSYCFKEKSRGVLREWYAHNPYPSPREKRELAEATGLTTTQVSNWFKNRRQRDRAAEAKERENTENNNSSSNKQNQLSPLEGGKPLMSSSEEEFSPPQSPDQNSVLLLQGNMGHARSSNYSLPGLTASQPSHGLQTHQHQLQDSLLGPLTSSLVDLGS
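AlphaScreen with GST-Six1 and His-Eya2 (5X mix: 250 nM and 500 nM), glutathione donor and nickel acceptor beads; buffer 50 mM Tris pH 8.0, 300 mM NaCl, 1 mM TCEP; 1 h at 37 C in the dark.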
CtBP-E1A blk: qHTS Assay for Inhibitors of the CtBP/E1A Interaction; activity change, % (concentration not given with the values); AID 651724, 2012; CtBP / adenovirus E1A interaction (AlphaScreen); AlphaScreen GST-E1A/His-CtBP binding, 1536-well; active compounds read low; control for the full effect not named in the record; 340,000 tested, 0.49% active; in the data active means activity change below about -65%; inconclusive means about -30% to -65%; inactive means above about -30%; further: on the % scale 0 is the no-effect control and ±100 the full control effect
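GST-E1A and His-tagged CtBP (125 nM each as 5X stock) were preincubated with pin-transferred compound for 2 h at 37 °C in the dark, then glutathione donor and nickel acceptor beads were added for 1 h before AlphaScreen reading.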
D2 PAM: Beta-Arrestin HTS for Positive Allosteric Modulators of the Human D2 Dopamine Receptor: Potentiators | D(2) dopamine receptor (Homo sapiens), P14416 | DiscoveRx D2 beta-arrestin cells, luminescence, 90 min; 100% = 57 uM dopamine signal | potentiation, % (no concentration beside the values) | 360,000 tested, 0.23% active | AID 624464, 2012; active = potentiation of 50% or more; inconclusive = 30% to 50%; inactive = 30% or less;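 further: compound concentration not given in the record; tested on top of an EC20 dose of dopamine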
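PathHunter beta-arrestin assay in DiscoveRx D2 cells. Compounds were added with an EC20 of dopamine (50 nM final) for 90 min at 37 deg C. Luminescence was read 1 h after detection reagent, with 57 uM dopamine as the EC100 control.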
D2 ag: Beta-Arrestin HTS for Positive Allosteric Modulators of the Human D2 Dopamine Receptor: Agonists | D(2) dopamine receptor (Homo sapiens), P14416 | DiscoveRx PathHunter D2 beta-arrestin, luminescence, 90 min; 100% = 57 uM dopamine signal | activation, % (no concentration beside the values) | 360,000 tested, 0.084% active | AID 624465, 2012; in the data active = activation above about 40%; inconclusive = about 15% to 40%; inactive = below about 15%; further: compound concentration not given in the record; the text of the record calls up to 30% inactive
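Agonist mode: compounds alone added to overnight-plated D2 PathHunter cells for 90 min at 37 C, with 57 uM final dopamine (EC100) defining full response. Beta-arrestin recruitment detected by chemiluminescent reagent, read after 1 h at ambient temperature.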
gsp antagonist: qHTS for Antagonists of gsp, the Etiologic Mutation Responsible for Fibrous Dysplasia/McCune-Albright Syndrome: qHTS; gsp-mutant cells, cAMP HTRF, 30 min; control for the full effect not named in the record; Potency, µM (series often up to 76.9 µM), without a hit: top-dose activity change, negative = inhibition, hits mostly inhibitors; 340,000 tested, 0.4% active; AID 624288, 2012; active = falling curve of any shape with a large fitted effect; inconclusive = falling curve, mostly with a smaller effect; inactive = flat or rising curve; cell line not stated here;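 further: intracellular cAMP measured with PDE inhibitor Ro 20-1724 present during compound exposure; potency means the concentration at half of the fitted maximal effect; on the % scale 0 is the no-effect control and ±100 the full control effect; nearly all actives have a fitted effect of over 65% in size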
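Measurement of cellular cAMP by homogeneous time-resolved fluorescence following a 30 min compound exposure at 37C. The PDE inhibitor […] was present throughout; the assay buffer was DPBS with 0.05% BSA and 0.005% Tween 20.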
gsp agonist: qHTS for Agonist of gsp, the Etiologic Mutation Responsible for Fibrous Dysplasia/McCune-Albright Syndrome: qHTS | gsp mutant cells, cAMP HTRF, 30 min; control for the full effect not named in the record | 340,000 tested, 0.13% active | Potency, µM (titrated, usually from 76.9 µM), without a hit: at the top dose activation (cAMP increase), usual class: activators | AID 624287, 2012; active = well fitted activation curve with a large enough effect; inconclusive = small, poorly fitted or top-dose-only effect, or another doubt; inactive = no such curve, though single readings can be large or run the other way; cell line not stated here;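 further: phosphodiesterase inhibitor Ro 20-1724 added with compounds to block cAMP breakdown; potency means the concentration at half of the fitted maximal effect; nearly all actives have a fitted effect of over 60% in size; about a fifth of the inactives were tested at one dose only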
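Cells in DMEM/10% FBS with G418 were pretreated with compounds in DMSO plus […] (300 uM stock) for 30 min at 37C. cAMP was measured by HTRF (cAMP-d2 plus anti-cAMP antibody-K) after 30 min at room temperature.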
* = called active by the depositor; u = inconclusive; x = no result given; [ ] = another dose, or the depositor's remark. Compounds as they come; any-hit rate near 1.4%.

SMILES | Six1-Eya2 inh | CtBP-E1A blk | D2 PAM | D2 ag | gsp antagonist | gsp agonist
CCCCN1C(=O)c2ccc(C(=O)OCC(=O)N3CCN(c4ccccc4)CC3)cc2C1=O | 2 | 2 | -1 | -2.3 | -2% | 4%
COc1ccc(Cn2c(-c3ccc(OC)cc3)n[nH]c2=S)cc1 | -4 | -4 | 0 | -3.3 | -10% | 21%[15.4 µM]
O=C(Nc1ccc(NC(=O)c2ccc3c(c2)OCO3)cc1)c1cccc(Cl)c1 | 6 | x | 2 | -1.4 | 0% | 5%
O=C(NCc1ccco1)C1CCN(c2ccc(N3CCOCC3)nn2)CC1 | 10 | -4 | -11 | -7.2 | 5% | -11%
O=C(NCCCn1ccnc1)/C(=C\c1cccs1)NC(=O)c1cccs1 | -8 | 2 | -4 | 3.3 | x | -7%[15.4 µM]
Cc1ccc(N2C(=O)c3ccc(N)cc3C2=O)cc1 | 20 | 7 | 9 | 2.0 | 0% | 1%
Cc1onc(-c2c(Cl)cccc2Cl)c1C(=O)N1CCc2ccccc2C1 | 0 | -2 | -8 | -2.3 | -13% | -13%
COc1ccc(C(=O)c2sc(NC(C)C)nc2N)cc1OC | -10 | 11 | -2 | 0.5 | 12% | 0%
Cc1cc(OCC(=O)N2CCc3ccccc3C2)c(C)cc1Br | 13 | 18 | 1 | 1.2 | -13% | -11%
O=C(NC1CCCC1)C1CCN(C(=O)c2ccc(-c3ccccc3)cc2)CC1 | 3 | -2 | -9 | -3.3 | -17% | 13%[15.4 µM]
O=c1c2cnn(-c3ccccc3)c2nc(-c2ccco2)n1-c1ccccc1 | -3 | 1 | -10 | 0.9 | -14% | -38%[inhibitor]
CC1CCCN(C(=O)C2COc3ccccc3O2)C1 (stereo not drawn) | -3 | -8 | -15 | -3.4 | -3% | u
COc1ccc(C(=O)NC(=S)NNC(=O)c2c(-c3ccccc3)noc2C)cc1 | -1 | -11 | -12 | -14 | 6% | 0%
CCc1cc2cc(C(=O)Nc3ccc(C)cc3)sc2s1 | 4 | -4 | -33 | 6.4 | 1% | 2%
Cc1ccc(SCC(=O)OCC(=O)N(C)CC(=O)Nc2ccccc2Cl)cc1 | -1 | 5 | -6 | -2.5 | -6% | -43%[inhibitor]

Four compounds already listed, sorted by their value in CtBP-E1A blk, lowest first.
SMILES | Six1-Eya2 inh | CtBP-E1A blk | D2 PAM | D2 ag | gsp antagonist | gsp agonist
CCc1cc2cc(C(=O)Nc3ccc(C)cc3)sc2s1 | 4 | -4 | -33 | 6.4 | 1% | 2%
Cc1onc(-c2c(Cl)cccc2Cl)c1C(=O)N1CCc2ccccc2C1 | 0 | -2 | -8 | -2.3 | -13% | -13%
O=c1c2cnn(-c3ccccc3)c2nc(-c2ccco2)n1-c1ccccc1 | -3 | 1 | -10 | 0.9 | -14% | -38%[inhibitor]
CCCCN1C(=O)c2ccc(C(=O)OCC(=O)N3CCN(c4ccccc4)CC3)cc2C1=O | 2 | 2 | -1 | -2.3 | -2% | 4%

Carrying on.
SMILES | Six1-Eya2 inh | CtBP-E1A blk | D2 PAM | D2 ag | gsp antagonist | gsp agonist
Brc1ccc2nc(-c3ccncc3)c(NC3CCCC3)n2c1 | -5 | -2 | -2 | 5.3 | -16% | 30%
COC(=O)c1[nH]c2ccc(C)cc2c1NC(=O)NC1CCCCC1 | 3 | 2 | -6 | -2.3 | 4% | -28%
CCOC(=O)C1=C(C)NC(C)=C(C(=O)OCC)C1c1ccncc1 | 9 | 13 | 0 | -0.8 | x | 3%
CCC(C)Sc1ccc([C@H]2N[C@@](C)(C(=O)OC)[C@H]3C(=O)N(CC)C(=O)[C@@H]23)cc1 (stereo partly drawn) | 0 | 6 | -7 | -1.4 | 8% | x
CN(Cc1ccccc1)C(=O)c1ccc(NC(=O)Cc2ccc(NC(=O)C3CCCN(C(=O)C4CCCCC4)C3)cc2)cc1 (stereo not drawn) | -6 | -25 | -3 | 1.1 | -9% | x
Clc1cccc(CN2CCN(Cc3nc(CCc4ccccc4)no3)CC2)c1 | -2 | 6 | -13 | -3.5 | -2% | 22%
O=C(CN1CCCC1)N1c2ccccc2C=Cc2ccccc21 | 1 | x | -6 | -6.8 | 10% | 2%
COC(=O)c1cc(NC(=O)c2nn(C)c(=O)c3ccccc23)cc(C(=O)OC)c1 | 7 | x | -7 | -6.4 | -4% | -75%[inhibitor]
CSc1nc2n(n1)C(c1cccc(F)c1)C(C(=O)Nc1ccc(C)cc1C)=C(C)N2 (stereo not drawn) | -2 | 4 | 10 | -5.5 | 1% | 7%
O=C(COc1ccc(Br)cc1F)Nc1nnc(C2CC2)s1 | 9 | 6 | -4 | 6.6 | 4% | 27%
CCN(CC)S(=O)(=O)c1ccc(Cl)c(C(=O)NC(C)C(c2cccs2)N2CCCC2)c1 (stereo not drawn) | -13 | 0 | 12 | 1.4 | -11% | 0%[15.4 µM]
COCc1c(C(=O)OCC(=O)NCc2ccco2)oc2ccccc12 | -11 | x | -6 | 4.6 | -1% | 13%
CC(=O)NCCNC(=O)C1(C)Cc2c(-c3cccc(NC(C)=O)c3)ccnc2O1 (stereo not drawn) | 10 | 4 | -5 | -3.0 | x | x
O=C1COc2ccc(C(=O)CSc3nnc(Cc4ccccc4)o3)cc2N1 | 0 | -2 | -6 | -0.4 | -17% | 23%
CCOc1cccc(-c2c(C(=O)N/N=C/c3ccsc3)nnn2-c2nonc2N)c1 | -1 | -1 | 0 | -0.1 | -30% | 14%
C[N+](C)(C)CCNC(=O)c1cc[n+](Cc2ccccc2)c(/C=N/O)c1 | 0 | -1 | 1 | 1.0 | 4% | -11%
COc1cc(C(=O)N2CCN(C)CC2)cc(OC)c1OC | 9 | 9 | -4 | -4.9 | 1% | 9%
COc1cccc(C(=O)c2cc3ccc(O)cc3oc2=O)c1 | 27 | 48 | 9 | -3.1 | -1% | 1%
O=C(N/N=C/c1ccc(Cl)cc1)c1cc(-c2cccnc2)nc2ccccc12 | 0 | 0 | -10 | -3.1 | 5% | -11%[15.4 µM]
COc1cc(CNc2ccc3[nH]c(=O)[nH]c3c2)cc(Br)c1OCc1ccc(F)cc1 | -23 | -11 | 3 | 1.4 | -11% | -1%[15.4 µM]
CC(C)N=C(NS(=O)(=O)c1ccccc1)C(Cl)(Cl)Cl | -9 | -8 | 19 | 4.7 | 13% | -4%
COC(=O)[C@H]1C[C@@]2(O)CN(S(=O)(=O)c3ccc(C)cc3)C[C@@]2(OC(=O)Nc2c(C)noc2C)C[C@H]1C(=O)OC | -21 | -14 | 0 | -7.6 | x | -19%
NC(=O)c1cc(C(=O)c2ccc(Cl)cc2)c[nH]1 | -2 | -9 | -7 | 1.2 | 5% | -3%[15.4 µM]
O=C(CCS(=O)(=O)c1ccccc1)Nc1nccs1 | 6 | 0 | -1 | -5.0 | 2% | u
CCc1noc(C)c1C(=O)NNC(=O)c1ccc(Br)cc1 | -1 | -4 | -2 | -6.3 | 3% | -35%[inhibitor]
CS(=O)(=O)N(CC(=O)NCCSCc1ccccc1)c1ccccc1F | 8 | -1 | -3 | -3.8 | -2% | 0%
COc1ccccc1OCC(=O)NNC(=O)c1c(-c2ccccc2Cl)noc1C | 8 | 10 | -4 | -13 | -6% | -7%[15.4 µM]
Cn1cncc1C#Cc1ccc2cc(CCCO)oc(=O)c2c1 | -2 | 1 | 3 | -0.5 | -19% | -2%
COc1ccc(OCC(=O)N2CCN(c3cccc(C(F)(F)F)c3)CC2)cc1 | -2 | -1 | -3 | 0.5 | u | 0%
O=C(COC(=O)c1ncc(Cl)c(Cl)c1Cl)NC(=O)c1ccccc1 | 5 | -7 | -1 | -1.1 | -12% | -17%[15.4 µM]
Cc1ccc(NC(=O)CCC(=O)c2ccccc2)cc1 | 11 | -9 | -7 | -0.1 | -6% | -81%[inhibitor]
CC(NC(=O)CN(c1ccc(Br)cc1)S(C)(=O)=O)c1ccccc1 (stereo not drawn) | 7 | x | -21 | -3.4 | -5% | 18%
C=CCC[C@H](Cc1ccc(F)cc1)C(=O)OC[C@@H](Cc1c[nH]c2ccccc12)NC(=O)[C@H](CC=C)CC(=O)N(CCO)Cc1ccccc1 | -9 | -8 | 1 | 5.7 | -26% | x
CCCC(c1nnnn1CC(=O)OCC)N(Cc1cc2ccc(C)cc2[nH]c1=O)C1CCCC1 (stereo not drawn) | 8 | -5 | 3 | -0.5 | -8% | -3%
Cc1ccc(C(=O)Nc2ccc(C)c(S(=O)(=O)Nc3ccccc3Cl)c2)s1 | u | u | 0 | 0.7 | u | 1%[15.4 µM]
O=[N+]([O-])c1cccc(-c2c[n+]3c(n2-c2ccccc2)SCC3)c1 | -2 | -2 | -4 | -0.4 | 11% | 22%[15.4 µM]
CCOc1cccc(CN2CCCC(CNC(=O)c3cccc(OC)c3OC)C2)c1 (stereo not drawn) | -3 | -1 | -23 | -2.1 | 11% | -38%[inhibitor]
O=C(COC(=O)c1ccccc1O)NCc1ccco1 | -13 | 1 | 7 | 5.7 | -10% | 3%
CC1=C(C(=O)OCc2ccccc2)C(c2ccccc2OS(=O)(=O)c2ccc([N+](=O)[O-])cc2)NC(=O)N1CCCC(=O)O (stereo not drawn) | -15 | -3 | 28 | u | u | -3%
COCC(=O)N1CCC(Oc2ccc(C(=O)N(C)C(C)c3ccon3)cc2)CC1 (stereo not drawn) | 6 | -5 | 10 | -1.1 | 5% | u
N#Cc1ccccc1NS(=O)(=O)c1cc2c3c(c1)CCN3C(=O)CC2 | 4 | 7 | 5 | -3.4 | 7% | 112%[15.4 µM]
CCOc1cc(S(=O)(=O)n2ccnc2)ccc1Br | 9 | 5 | -5 | 5.8 | 10% | -19%
Cc1cc(C)n2c(SCc3ccc(Br)cc3)nnc2n1 | 6 | x | -19 | -4.9 | -14% | 0%
CCc1ccccc1NC(=O)c1cccc(NC(=O)/C=C/c2ccco2)c1 | -21 | -4 | 10 | -2.9 | u | -10%
COc1ccc(-c2[nH]ncc2CN(C)CCCN2CCOCC2)cc1F | 2 | -1 | -7 | -2.2 | 4% | -40%
CC1SCC(=NOCc2ccccc2)CS1 (stereo not drawn) | -5 | 1 | -12 | -1.2 | 16% | -16%[15.4 µM]
COc1cc(C=NNc2nc3c([nH]2)c(=O)n(C)c(=O)n3C)ccc1O | 4 | -1 | -3 | -4.0 | -12% | -4%
Cc1ncoc1C(=O)N1CCCC(C(=O)c2ccc(Oc3ccccc3)cc2)C1 (stereo not drawn) | 5 | -4 | 0 | -0.1 | 0% | 7%[15.4 µM]
